LASV entry inh: blocks Lassa virus binding to or entry into cells; Lassa virus pseudotype entry inhibition, cell reporter; control for the full effect not named in the record; Potency, µM (top dose mostly 37.9 µM), for the others: at the top dose activity change, negative = inhibition, actives largely listed as inhibitors; 300,000 tested, 1.2% active; active means well fitted inhibition curve with a large enough effect; inconclusive means small, poorly fitted or top-dose-only effect, or effect the other way; inactive means flat fitted curve, though single readings scatter; tested in HEK293 cells; further: on the % scale 0 is the no-effect control and ±100 the full control effect; nearly all actives have a fitted effect of over 50% in size; luciferase read-out
SARS PLP yeast: SARS-CoV PLP inhibition in yeast; S. cerevisiae expressing SARS-CoV PLpro, growth rescue; control for the full effect not named in the record; AID 485353; Potency, µM (highest dose often 32.9 µM), for the others: top-dose activity, positive = growth rescue; 330,000 tested, 0.19% active; further: 0% is about no effect; nearly all actives have a fitted effect of over 55% in size; growth read by luminescence after 48 h
RE007 growth inh: less growth of the S. pombe RE007 Vpr strain. Potency, µM (top dose mostly 92.2 µM), for the others: top-dose activity change, negative = less growth. 360,000 tested, 0.21% active. S. pombe RE007 Vpr strain, BacTiter-Glo ATP luminescence, 24 h; control for the full effect not named in the record; active = well fitted falling curve with a large enough effect; inconclusive = small, poorly fitted or top-dose-only effect; inactive = no such curve, though single readings can be large or run the other way;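 further: on the % scale 0 is the no-effect control and ±100 the full control effect; nearly all actives have a fitted effect of over 50% in size; the assay follows cell death caused by Vpr and the record does not say whether a fall means rescue or toxicity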
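Fission yeast RE007 carrying one integrated HIV-1 vpr copy, seeded at OD 0.01 in PMG+AL medium with 23 nL pinned compound. Grown 24 h at 30 degrees; viability read by BacTiter-Glo luminescence after 5 min.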
Cruzain noTriton: blocks cruzain activity in detergent-free assay; P25779; Potency, µM, inactives show max response, negative = inhibition, usual class: inhibitors; 200,000 tested, 2.3% active; purified cruzain, Z-FR-AMC fluorescence, no detergent; active means well fitted curve in the direction sought with a large enough effect; inconclusive means small, poorly fitted or top-dose-only effect, or another doubt; inactive means no such curve, though single readings can be large; an effect the other way counts as inactive or inconclusive;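 further: plate controls were enzyme without inhibitor for no effect and buffer without enzyme for full effect; nearly all actives have a fitted effect of over 40% in size; top concentration of the series not given in the record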
Target sequence (P25779 123-467 limits assumed): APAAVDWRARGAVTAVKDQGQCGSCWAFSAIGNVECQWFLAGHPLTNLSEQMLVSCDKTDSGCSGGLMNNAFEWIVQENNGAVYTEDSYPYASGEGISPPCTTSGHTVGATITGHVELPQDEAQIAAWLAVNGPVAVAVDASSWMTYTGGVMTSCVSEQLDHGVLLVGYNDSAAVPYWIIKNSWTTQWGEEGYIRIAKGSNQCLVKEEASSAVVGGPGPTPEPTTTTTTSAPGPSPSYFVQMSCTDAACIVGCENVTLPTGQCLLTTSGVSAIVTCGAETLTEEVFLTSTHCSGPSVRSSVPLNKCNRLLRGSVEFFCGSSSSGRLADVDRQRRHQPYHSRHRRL
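Detergent-free condition (0.00005% Triton X-100) in acetate buffer pH 5.5 with DTT. 1.5 nM enzyme and compound were pre-mixed 15 min, then 2 uM Z-FR-AMC substrate added; reaction progress from fluorescence change between first and third reads (60 s).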
2A StopGo: lowers the luciferase signal of an FMDV 2A StopGo reporter | Potency, µM (series often up to 57.9 µM), for the others: at the highest dose signal change, negative = less light | AID 1159524 | 410,000 tested, 1.2% active | human cells with a luciferase reporter of 2A StopGo recoding; control for the full effect not named in the record; active = well fitted falling curve with a large enough effect; inconclusive = small, poorly fitted or top-dose-only effect; inactive = no such curve, though single readings can be large or run the other way; tested in HEK293T cells; further: on the % scale 0 is the no-effect control and ±100 the full control effect; nearly all actives have a fitted effect of over 45% in size; luciferase light after 4 h
NS1 inh: blocks influenza NS1 protein function; S. cerevisiae slowed by influenza A NS1, growth recovery by OD600; Potency, µM (titrated, usually from 46.1 µM), inactives show top-dose activity, positive = more growth; 270,000 tested, 0.4% active; further: actives are rising curves; nearly all actives have a fitted effect of over 50% in size
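Recovery from NS1-induced slow growth read by OD600 in budding yeast switched to galactose assay medium (pH 6.0, -URA) at 1:100 dilution. Compound 23 nl per well; the matching strain lacking NS1 serves as control.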
Cruzain Triton: cruzain (T. cruzi) inhibition with detergent; P25779; purified cruzain, Z-FR-AMC fluorescence, 0.01% Triton; Potency, µM, inactives show max response, negative = inhibition, hits mostly inhibitors; 200,000 tested, 0.43% active; AID 1478; active means well fitted curve in the direction sought with a large enough effect; inconclusive means small, poorly fitted or top-dose-only effect, or another doubt; inactive means no such curve, though single readings can be large; an effect the other way counts as inactive or inconclusive;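 further: plate controls were neutral wells for no effect and buffer without enzyme for full effect; nearly all actives have a fitted effect of over 40% in size; top concentration of the series not given in the record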
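15 min RT preincubation of 1.5 nM cruzain with compound, then 2 uM Z-FR-AMC added; kinetic AMC fluorescence, 60 s delta. Triton X-100 0.01%, pH 5.5.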
MARV entry inh: blocks Marburg virus binding to or entry into cells; Potency, µM (series often up to 37.8 µM), for the others: top-dose activity change, negative = inhibition, most hits filed as inhibitors; AID 540276; Marburg virus pseudotyped entry inhibition, cell reporter; control for the full effect not named in the record; about a third of the inactives were read at about 46 µM; 300,000 tested, 1.8% active; active = well fitted inhibition curve with a large enough effect; inconclusive = small, poorly fitted or top-dose-only effect, or effect the other way; inactive = flat fitted curve, though single readings scatter; tested in HEK293 cells; about a fifth of its hits are not listed in these tables; further: on the % scale 0 is the no-effect control and ±100 the full control effect; luciferase read-out
Active calls of the source: *; ? = inconclusive; . = not tested or not shown; & = joins results of further samples; [ ] = another dose, or the depositor's remark. Unless noted, the call rests on the fitted dose curve; in most records, active means well fitted rising curve with a large enough effect; inconclusive means small, poorly fitted or top-dose-only effect; inactive means no such curve, though single readings can be large or run the other way. Potency means the concentration at half of the fitted maximal effect.

1: CCN(CC)S(=O)(=O)c1ccc(C)c(NC(=O)COC(=O)[C@@H]2CCCN2C(=O)c2cccs2)c1
2: CCOC(=O)N1CCN(C(=O)CCc2cc(OC)c(OC)c(OC)c2)CC1
3: Cn1c2ccccc2c2cnn(CC(=O)Nc3cccc(F)c3)c(=O)c21
4: Cc1cc(C)cc(Nc2ccc(C(=O)O)cc2N)c1
5: CC(Cc1ccccc1)NC(=O)CN1CCCC1=O (stereo not given)
6: Cc1ccc(Sc2c(C)nn(C(=O)COc3ccc(F)cc3)c2C)cc1
Compound,1,2,3,4,5,6
LASV entry inh,6%,2%,-12%,30%,13%[46.1 µM],0%[46.1 µM]
SARS PLP yeast,3%,-4%,-1%,17%,13%,.
RE007 growth inh,0%,18%,-7%,-14%,6%,.
Cruzain noTriton,.,.,.,-9%,-7%,11%
2A StopGo,-9%,-29%,29%,14%,-3%,-13%
NS1 inh,.,5%,-5%,24%,2%,.
Cruzain Triton,.,.,.,-4.5%,0.6%,-2.9%
MARV entry inh,0%,0%,5%[46.1 µM],12%,2%[46.1 µM],-19%[46.1 µM]

7: Fc1ccccc1CSc1nnnn1-c1ccc2c(c1)OCO2
8: CCCCN(C(=O)CCCc1nc2ccccc2s1)c1c(N)n(CCCC)c(=O)[nH]c1=O
9: O=C(NC1=NCCS1)c1cc(-c2ccc(-c3ccccc3)cc2)nc2ccccc12
10: O=C(Nc1nc2ccccc2s1)C1=NN(c2ccccc2)C(=O)CC1
11: COc1ccc(-c2nnc(SCC(=O)N3CCOCC3)o2)cc1OC
12: COc1ccc(NC(=O)COC(=O)c2ccc(NS(=O)(=O)/C=C/c3ccccc3)cc2)cc1
Compound,7,8,9,10,11,12
LASV entry inh,-13%,3%,?,-3%,.,2%
SARS PLP yeast,-8%,-10%,-75%,6%,-2%,-14%
RE007 growth inh,-2%,-18%,-2%,-15%,-7%,7%
Cruzain noTriton,-5%,.,7.9µM*,-15%,-7%,?
2A StopGo,47%[activator],-8%,-14%,27%,-27%,51%[activator]
NS1 inh,-38%,-7%,0%,10%,9%,?
Cruzain Triton,-2.7%,.,-3.2%,-4.9%,-5.2%,-2.7%
MARV entry inh,22%,?,?,8%,.,-7%

13: Cc1cc(C)n2nc(C(=O)N3CCCC(Nc4ccc(F)c(F)c4)C3)cc2n1 (stereo not given)
14: Cc1cccc(NC(=O)c2cc(NC(=O)c3ccco3)ccc2N2CCCCC2)c1
15: COc1ccc(C(CC(=O)c2ccccc2)C2CCCCC2=O)cc1 (stereo not given)
16: CCOc1cccc(C(=O)N/N=C/c2coc3ccccc3c2=O)c1
17: COc1ccc(C)cc1NC(=O)c1cc(S(=O)(=O)N2CCC(C)CC2)ccc1F
18: C/C(N)=C(/C#N)C(=O)COC(=O)c1ccc(C)c(S(=O)(=O)N2CCCCC2)c1
Compound,13,14,15,16,17,18
LASV entry inh,3%,-8%,1%,.,-2%[46.1 µM],-5%
SARS PLP yeast,-5%,-3%,-8%,?,.,18%
RE007 growth inh,-13%,1%,-5%,3%,.,16%
Cruzain noTriton,.,-15%,-14%,.,-9%,45%
2A StopGo,-11%,6%,-21%,-14%,-8%,-10%
NS1 inh,10%,2%,-7%,-4%,.,5%
Cruzain Triton,.,-7.0%,1.5%,.,0.7%,0.6%
MARV entry inh,4%,5%,8%,.,.,-10%[46.1 µM]

Three structures from above, ordered by number of heavy atoms, low to high:
16: CCOc1cccc(C(=O)N/N=C/c2coc3ccccc3c2=O)c1
13: Cc1cc(C)n2nc(C(=O)N3CCCC(Nc4ccc(F)c(F)c4)C3)cc2n1 (stereo not given)
17: COc1ccc(C)cc1NC(=O)c1cc(S(=O)(=O)N2CCC(C)CC2)ccc1F
Compound,16,13,17
LASV entry inh,.,3%,-2%[46.1 µM]
SARS PLP yeast,?,-5%,.
RE007 growth inh,3%,-13%,.
Cruzain noTriton,.,.,-9%
2A StopGo,-14%,-11%,-8%
NS1 inh,-4%,10%,.
Cruzain Triton,.,.,0.7%
MARV entry inh,.,4%,.

Continuation.
19: Cc1cccc(NC(=O)Nc2ccccc2[N+](=O)[O-])n1
20: O=C(NC1CCCCC1)c1cc2c(cc1Cl)N1CCCCCC1=NS2(=O)=O
21: CC(C)CC(=O)Nc1nnc(SCC(=O)NC2CCCCC2)s1
22: C=CCSc1nc(C)cc2c1C(=O)OC2
23: O=C(c1cccnc1)N1CCN(S(=O)(=O)c2cccc(Cl)c2)CC1
24: O=C(NCCc1ccccn1)c1ccc(NS(=O)(=O)c2ccc(F)cc2)cc1
Compound,19,20,21,22,23,24
LASV entry inh,.,-14%,.,16%[46.1 µM],?,?
SARS PLP yeast,-2%,4%,-1%,6%,1%,1%
RE007 growth inh,-4%,3%,9%,-14%,5%,-8%
Cruzain noTriton,.,.,.,.,.,.
2A StopGo,13%,8%,-10%,-2%,-14%,-13%
NS1 inh,-9%,.,-2%,.,-2%,.
Cruzain Triton,.,.,.,.,.,.
MARV entry inh,.,15%[46.1 µM],.,0%[46.1 µM],-11%,?

25: Cc1cccc(NC(=O)c2ccc(C)c(S(=O)(=O)N3CCOCC3)c2)n1
26: CCOC(=O)c1cc2sccc2n1CC(=O)Nc1ccc2c(c1)OCCO2
27: CC(=O)NCc1nnc2c3ccccc3c(-c3ccccc3)nn12
28: C=CCCC(=O)NC1CC(C)(C)Cc2c1cnn2-c1cccc(F)c1 (stereo not given)
29: Cc1c(Cl)cccc1NC(=O)NC1CCCCC1
30: CC(C)c1ccc(NC2CCCN(C(=O)c3cccs3)C2)cc1 (stereo not given)
Compound,25,26,27,28,29,30
LASV entry inh,0%,8%,11%[46.1 µM],.,?,.
SARS PLP yeast,.,-3%,-1%,-6%,3%,-5%
RE007 growth inh,20%,-9%,5%,-5%,11%,-14%
Cruzain noTriton,.,-9%,.,.,?,.
2A StopGo,14%,22%,1%,5%,70%[activator],3%
NS1 inh,.,9%,10%,19%,?,-5%
Cruzain Triton,.,3.9%,.,.,9.2%,.
MARV entry inh,-20%,?,7%[46.1 µM],.,1%,.

31: Cc1cc(-c2ccc(C)c(S(=O)(=O)Nc3ccccc3C(F)(F)F)c2)on1
32: CCCC#CCN1CCN(C23CC4CC(CC(C4)C2)C3)CC1
33: CC(=O)Nc1ccc(OCC(O)CN2CCN(c3ccc(Cl)cc3)CC2)cc1 (stereo not given)
34: Nc1ccc(S(=O)(=O)Nc2ccc(Cl)nn2)cc1
35: CC1CCCCN1Cc1nc2c(c(=O)n(C)c(=O)n2C)n1CCc1ccccc1 (stereo not given)
36: Cc1nc(Nc2nc3c(c(=O)[nH]2)CCC3)nc2ccccc12
Compound,31,32,33,34,35,36
LASV entry inh,24%[46.1 µM],.,0%,.,-13%,?
SARS PLP yeast,.,1%,1%,6%,-1%,.
RE007 growth inh,.,-2%,11%,13%,2%,11%
Cruzain noTriton,10%,.,-7%,6%&-1%,1%,.
2A StopGo,-5%,-7%,?,-9%&10%,-28%,17%
NS1 inh,.,3%,3%,1%,8%,.
Cruzain Triton,-8.2%,.,-2.4%,3.3%&2.0%,-2.0%,.
MARV entry inh,.,.,-18%[46.1 µM],.,-6%,?

37: Cc1ccc(-n2c(SCC(N)=O)nc(O)cc2=O)cc1
38: CCOC(=O)Cc1nnc(NC(=O)CSc2nc3ccccc3[nH]2)s1
39: COc1ccccc1CNC(=O)CCN1C(=O)COc2ccc(C)cc21
40: COc1cccc(NC(=O)C(=O)NCCC2CCCCN2S(=O)(=O)c2cccs2)c1 (stereo not given)
41: Cc1ccc(C(=O)NCc2ccco2)c(C)c1
42: Cc1ccc(-c2noc(CCC(=O)NC3CCCc4ccccc43)n2)cc1 (stereo not given)
Compound,37,38,39,40,41,42
LASV entry inh,-8%,-6%,-9%,-26%,10%,?
SARS PLP yeast,18%,0%,2%,3%,-8%,1%
RE007 growth inh,0%,-12%,-15%,-10%,5%,-7%
Cruzain noTriton,-2%,.,3%,.,.,-17%
2A StopGo,2%,1%,-18%,-5%,64%[activator],-22%
NS1 inh,24%,2%,-5%,.,13%,-8%
Cruzain Triton,-2.6%,.,7.3%,.,.,-4.9%
MARV entry inh,-10%,2%[46.1 µM],-10%,?,19%,-24%

43: Cc1ccc(Nc2nc(N)nc(CSc3nnc(C)s3)n2)cc1
44: O=C(O)c1ccc2c(=O)n(-c3ccccc3F)c(=S)[nH]c2c1
45: O=S(=O)(NCc1ccncc1)c1ccc(Br)s1
46: COc1cccc(/C=C/C(=C2\C(=O)N(c3ccccc3)N=C2C)c2ccc(Br)cc2)c1OC
47: CC(C)Oc1nnnn1-c1ccccc1
48: CCN(CC(=O)N(CC(C)C)c1c(N)n(CC(C)C)c(=O)[nH]c1=O)Cc1nc2ccccc2c(=O)[nH]1
49: Cc1ccc(C(C)C)c(OCCCN(C)Cc2ccccc2)c1
50: CCOc1ccc(S(=O)(=O)c2cn(Cc3ccccc3C)c3ccc(OC)cc3c2=O)cc1
51: O=C(CCc1nnc2ccc(NCc3ccccc3Cl)nn12)NCC1CCN(C2CCCC2)C1 (stereo not given)
Compound,43,44,45,46,47,48,49,50,51
LASV entry inh,7%,11%,-16%,7%,7%,.,?,?,10%[46.1 µM]
SARS PLP yeast,1%,2%,-9%,.,0%,0%,-5%,.,-5%
RE007 growth inh,-11%,1%,2%,17%,-2%,-2%,5%,.,-23%
Cruzain noTriton,.,.,-1%,.,0%,.,4%,?,.
2A StopGo,62%[activator],-1%,-16%,?,-11%,-5%,-7%,14%,-24%
NS1 inh,2%,.,-3%,.,3%,-8%,-29%,.,11%
Cruzain Triton,.,.,6.5%,.,1.3%,.,-0.4%,-8.5%,.
MARV entry inh,25%,-10%[46.1 µM],?,?,20%,.,8.2µM*,?,0%[46.1 µM]
